Source: PubChem BioAssay
CapD inh = blocks the Bacillus anthracis CapD enzyme | purified CapD enzyme, fluorescence intensity read-out; active compounds read low; some hits fall short of the stated cut | z-score (test concentration not listed) | hit rate 0.23% among 140,000;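 active = z-score under -4 in either of two replicates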;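 also: stock transfer was 100 nL into about 40 µL; score is relative to mean and spread of the plate; one replicate is shown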
AID504770 = growth inhibitors of E. coli YBA685 in a screen for V. cholerae RctB (chromosome II replication) inhibitors; E. coli YBA685 rctB-dependent plasmid, OD600 growth, 3 h; active compounds read low; z-score (no concentration beside the values); hit rate 0.27% among 130,000; AID 504770;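 active = z-score under -2 on both plates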;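 also: wells of about 30 µL received 100 nL stock; score is relative to mean and SD of the test wells; the first replicate is given; strong numbers were not always called active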
An asterisk follows results filed as active; i = inactive; . = not tested or not shown.

Each structure is followed by: CapD inh | AID504770
> CC(NC(=O)c1ccc(Cl)cc1)c1ccncc1 (centres undefined)
    -1.5 | 0.3
> CCn1c(=O)c(=O)n(CC)c2cc(S(=O)(=O)NC3CCCCC3)ccc21
    -0.56 | 0.1
> CC(C)(C)C(=O)NCCC1CC1(Cl)Cl (centres undefined)
    -0.05 | -0.55
> CCOC(=O)c1c(NC(=O)c2ccc(Cl)c(Cl)c2)sc(C(=O)Nc2ccccc2OC)c1C
    0.025 | .
> O=C(Nc1ccc(S(=O)(=O)Nc2nccs2)cc1)C1CC(=O)N(c2ccccc2)C1 (centres undefined)
    0.15 | 1.1
> O=C1CC(C2CCCC=C2N2CCCCC2)C(=O)N1c1ccccc1 (centres undefined)
    . | -0.5
> COc1ccc(C(C)=O)cc1N1C(=O)C2C3c4ccccc4C(C=O)(c4ccccc43)C2C1=O (centres undefined)
    -0.22 | .
> CCc1ccc(C2=NN(c3ccccc3)C3(SC(C(=O)c4ccccc4)=NN3c3ccccc3)c3ccccc32)cc1 (centres undefined)
    0.12 | .
> CCc1ccc(CNC(=O)c2ccc(Sc3ccc(C)cc3)c(NC(C)=O)c2)cc1
    3.5 | 0.25
> Cc1ccc2c(c1)c1nc3n(c(=O)c1n2CC(=O)N1CCCC1)CCS3
    . | -0.45

(continued)
Each structure is followed by: CapD inh | AID504770
> COC(=O)N1N=C(c2ccccc2)CC1(O)C(F)(F)F (centres undefined)
    . | -0.1
> CC(=O)Nc1ccc(Sc2ncccc2C(=O)Nc2ccc(F)cc2)cn1
    -0.81 | .
> O=C(OCCc1c(F)cccc1Cl)N1CCN(c2cccc(Cl)c2)CC1
    -1.2 | .
> CCN1C(=O)/C(=C2\Sc3ccc(Cl)cc3N2C2CCCCC2)SC1=S
    -0.32 | .
> CCOc1cc(C2NC(=O)c3ccccc3O2)ccc1OCC(=O)OC (centres undefined)
    . | -0.25
> Cc1cc2c(c(=O)o1)C(c1cccc(OCc3c(F)cccc3Cl)c1)C(C#N)=C(N)O2 (centres undefined)
    0.42 | .
> CN(C)c1ccc(/C=C/c2ccc3ccccc3[n+]2C)cc1
    -1.1 | .
> C[N+](C)(C)CCOP(=O)([O-])OP(=O)(O)OC[C@H]1OC(n2ccc(N)nc2=O)[C@H](O)[C@@H]1O (some centres undefined)
    . | 0.15
> COc1ccc(CC(=O)Sc2nc3ccccc3o2)cc1
    -0.15 | 0.35
> COc1ccccc1OCCOc1c(Br)cc(C=C2C(=O)N(C)C(=O)N(C)C2=O)cc1OC
    0.1 | .

Given in markdown: entries from further up.
| SMILES | CapD inh | AID504770 |
| --- | --- | --- |
| O=C(OCCc1c(F)cccc1Cl)N1CCN(c2cccc(Cl)c2)CC1 | -1.2 | . |
| COC(=O)N1N=C(c2ccccc2)CC1(O)C(F)(F)F (centres undefined) | . | -0.1 |
| C[N+](C)(C)CCOP(=O)([O-])OP(=O)(O)OC[C@H]1OC(n2ccc(N)nc2=O)[C@H](O)[C@@H]1O (some centres undefined) | . | 0.15 |
| Cc1cc2c(c(=O)o1)C(c1cccc(OCc3c(F)cccc3Cl)c1)C(C#N)=C(N)O2 (centres undefined) | 0.42 | . |
| CC(=O)Nc1ccc(Sc2ncccc2C(=O)Nc2ccc(F)cc2)cn1 | -0.81 | . |
| COc1ccccc1OCCOc1c(Br)cc(C=C2C(=O)N(C)C(=O)N(C)C2=O)cc1OC | 0.1 | . |
| COc1ccc(CC(=O)Sc2nc3ccccc3o2)cc1 | -0.15 | 0.35 |

The results go on:
Each structure is followed by: CapD inh | AID504770
> C/C(=C\C(=O)Nc1ccccc1Cl)N1CCN(c2ccc(Cl)cc2)CC1
    -0.21 | .
> Cc1ccccc1NC(=O)c1ccc(Sc2ccc(Cl)cc2)c([N+](=O)[O-])c1
    0.34 | .
> Cc1ccc(-c2noc(CCC(=O)Nc3ccc4c(c3)OCO4)n2)cc1
    -0.84 | 1.1
> C=CCn1cnc2scc(-c3ccc(Cl)cc3)c2c1=O
    -0.14 | -0.95
> FC(F)(F)c1cnc(-n2cc(C3OCCO3)c3ccccc32)c(Cl)c1
    0.65 | -0.1
> COC(=O)c1ccc(NC(=O)CSC(=S)N2CCOCC2)cc1
    0.36 | 0.05
> CCOc1ccc2nc(Cl)c(CN(Cc3ccco3)C(=O)N(C)C)cc2c1
    . | -0.4
> c1ccc(COc2ccc3[nH]ccc3c2)cc1
    -0.65 | -0.85
> Cc1ccc(NC(=O)c2ccc(Br)o2)cc1
    -0.18 | -0.3
> NS(=O)(=O)c1ccc(NC(=O)C2CC=CCC2C(=O)N2CCOCC2)cc1 (centres undefined)
    0.72 | -0.25

(more compounds)
Each structure is followed by: CapD inh | AID504770
> CCOC(=O)NNC(=S)Nc1c(C)cccc1C
    -0.69 | .
> O=C(O)c1ccc(CSc2n[nH]c(-c3ccco3)n2)cc1
    . | 0.2
> Nc1ccc(C(=O)N2N=C(C(F)(F)F)CC2(O)c2ccc(F)cc2)cc1 (centres undefined)
    4 | .
> O=C1COc2ccc(Cl)cc2N1Cc1cc2c(cc1Cl)OCO2
    . | 0.9
> COC(=O)c1ccccc1NC(=O)Cc1noc2ccccc12
    1.3 | -0.05
> O=C(CSc1nc2ccccc2o1)NCC1CCCCC1
    -0.35 | -0.65
> CCCCC(=O)Nc1cc2nn(-c3ccccc3)nc2cc1C
    12 | -0.6
> CCOC(=O)C1CCN(C(=O)CNC(=O)Cn2c(C)cc3ccccc3c2=O)CC1
    11 | -0.45
> COC(=O)c1scc(C#N)c1N=CN(C)C
    24 | -1.8
> O=S(=O)(c1ccc(NC2CCN(Cc3ccccc3)CC2)nc1)N1CCCCC1
    . | 0.4

New compounds follow:
Each structure is followed by: CapD inh | AID504770
> Nc1cccc(-n2cccc2)c1
    . | -0.65
> O=S(=O)(c1cc(OCC(F)(F)F)ccc1OCC(F)(F)F)n1cccc1
    0.64 | 0.4
> O=C(Nc1ccc(SC(F)(F)F)cc1)n1ccc(C(F)(F)F)n1
    -0.02 | -0.2
> Cc1ccc(N2C(=O)/C(=C\c3cccc([N+](=O)[O-])c3)C3=C2C(=O)N(c2ccc(C)cc2)C3c2ccccc2)cc1 (centres undefined)
    -0.61 | .
> CN1CCC(N(C)C(=S)NC2CCCCC2)CC1
    0.34 | -0.9
> O=C(O)COc1ccc(C(=O)NCc2ccccc2)cc1
    0.52 | -1.2
> Cc1ccc(Sc2cc3ccccc3nc2-c2ccc(Cl)cc2)cc1
    0.14 | .
> COc1cc(OC)c([N+](=O)[O-])c(OC)c1
    0.58 | .
> CCOC(=O)c1c(C)n(-c2ccccc2)c2c1cc(OC(=O)c1ccc(C)c(C)c1)c1ccccc12
    -0.2 | .
> O=C(CSC1CCCCC1)N1CCN(c2ccccc2)CC1
    0.41 | -0.75

Other structures.
Each structure is followed by: CapD inh | AID504770
> CCCN(CCC)S(=O)(=O)c1ccc(C(=O)Nc2cccnc2)cc1
    -0.89 | .
> Cc1cccc(-n2ncc3c(N4CCCC4)ncnc32)c1
    1.1 | -0.2
> O=C(CSc1nc2c(cnn2-c2ccc(Cl)cc2)c(=O)[nH]1)Nc1ccc(F)cc1
    -0.065 | -1.5
> Cc1noc2ncnc(N3CCCC3CO)c12 (centres undefined)
    0.12 | -0.1
> Cc1sc2nc(SCC(=O)N3CCCCC3)[nH]c(=O)c2c1C
    . | 0.15
> Cc1ccc(CSc2nnc(/N=C/NO)s2)cc1
    -0.01 | -0.9
> C=CCn1c(C)c(C=C(C#N)C#N)c2ccccc21
    . | -0.55
> COc1ccc(C2=N/C(=C\c3ccc4c(c3)OCO4)C(=O)O2)cc1
    0.15 | -0.05
> CN(C)S(=O)(=O)c1ccc(C(=O)Nc2nc3c(s2)CCc2ccccc2-3)cc1
    0.045 | 0.55
> COCCn1nnnc1C(c1ccncc1)N1CCCC1 (centres undefined)
    . | -1.2

(listing goes on)
Each structure is followed by: CapD inh | AID504770
> Cc1cc(C)nc(NS(=O)(=O)c2ccc(NC(=O)CC3CCCC3)cc2)n1
    . | 0.05
> CCOc1ccc(N=C2SC(C(=O)Nc3ccc(C(=O)OC)cc3)CC(=O)N2Cc2ccc3c(c2)OCO3)cc1 (centres undefined)
    -0.3 | .
> O=C1c2cccc3c(SCCO)ccc(c23)C(=O)N1CCc1ccccn1
    0.94 | .
> O=c1ccc(=O)n(CN(c2ccccc2)c2ccccc2)[nH]1
    -0.085 | -1
> Cc1nn(CCCC(=O)NC2CCCC(C)C2C)c(=O)c2nccn12 (centres undefined)
    0.2 | -0.15
> COC(=O)C(Cc1c[nH]c2ccccc12)NS(=O)(=O)c1cccc2nonc12 (centres undefined)
    -0.59 | 0.2
> O=C(CSCc1cccc2ccccc12)NNC(=S)Nc1ccccc1
    -0.46 | .
> O=C(CCc1cccs1)NC1=NCCS1
    . | -0.7
> COC(=O)c1c(C)oc(C)c1S(=O)(=O)N(C)C
    -1.1 | 2.9
> COc1ccc(CNC(=O)NC(=O)c2ccccc2)cc1
    -0.06 | 0.4

Some of the entries above in a different format.
O=C(CSCc1cccc2ccccc12)NNC(=S)Nc1ccccc1
  CapD inh: -0.46
  AID504770: .

O=C(CCc1cccs1)NC1=NCCS1
  CapD inh: .
  AID504770: -0.7

Next section.
Each structure is followed by: CapD inh | AID504770
> O=C(CCN1C(=O)C2C3C=CC(C3)C2C1=O)Nc1ccccc1 (centres undefined)
    -0.52 | 0.45
> O=S(=O)(c1ccccc1)c1nnn2c1nc(N1CCc3ccccc31)c1sccc12
    -2.5 | 1.3
> C=CCn1c(=S)sc2c(=O)n(Cc3ccc(Cl)cc3)cnc21
    . | -0.35
> O=C1N(c2ccc3c(c2)OCO3)C(c2ccc3c(c2)OCO3)C1(F)F (centres undefined)
    . | -0.2
> Cc1cccc(N2CC(C(=O)Nc3ccc4c(c3)OCO4)CC2=O)c1C (centres undefined)
    -0.05 | -0.95
> O=C(OCn1nnc2ccccc2c1=O)C12CC3CC(CC(C3)C1)C2
    15 | 0
> FC(F)(F)c1ccccc1Nc1nc(-c2cccnc2)cs1
    90 | -0.35
> C=C(C)Cn1c(SCC(=O)O)nnc1-c1ccccc1
    -0.47 | -0.05
> CCN(CC)Cc1ccc(Nc2ccnc3cc(Cl)ccc23)cc1O
    0.41 | 0.25
> O=C(CCN1C(=O)c2ccccc2C1=O)Oc1ccc(Cl)cc1
    0.3 | 0.45

Next compounds.
Each structure is followed by: CapD inh | AID504770
> CCOC(=O)C1=C(Nc2ccc(F)cc2)C(=O)N(C2CCCCC2)C1
    -0.57 | -0.05
> C=CCn1c(O)c(C=Nc2cccc(C)c2)c(=O)[nH]c1=S
    0.39 | 0.25
> COc1cc2ncnc(NCc3cccc4c3OCO4)c2cc1OC
    4.8 | -0.2
> CCOC(=O)C1CCN(Cn2c(O)c(N=NC(=S)Nc3cccc(OC)c3)c3ccccc32)CC1
    -1.9 | 0.7
> FC(F)(F)c1cc(-c2noc(-c3ccno3)n2)cc(C(F)(F)F)c1
    0.57 | 0.5
> O=S(=O)(c1cc(Br)c(Cl)s1)N1CCCCC1
    0.41 | .
> C/C(CC(=O)c1ccccc1)=N\n1cnnc1
    0.24 | -0.45
> O=C(Cn1nc(-c2ccccc2)ccc1=O)N1CCOCC1
    3.4 | 0.15
> CC(=O)N(CCN(C)C)c1nc2cc(C)cc(C)c2s1
    -0.35 | -0.95
> COc1cccc(C2=N/C(=C\c3ccccc3OC)C(=O)N2c2cc(C)cc(C)c2)c1
    -0.8 | .

The list goes on:
Each structure is followed by: CapD inh | AID504770
> N#CC1=C([S-])N[C@@](O)(c2ccccc2)[C@H]([n+]2ccc3ccccc3c2)[C@H]1c1ccc(Br)cc1
    -0.03 | .
> CCN(CC(=O)Nc1ccc(OC)cc1)CC(=O)Nc1ccc(C(N)=O)cc1
    . | -0.75
> COCC(C)Nc1nc(-c2ccccc2F)cs1 (centres undefined)
    . | 0.5
> COc1ccc(OC)c(S(=O)(=O)NCC(c2ccc(F)cc2)N2CCN(C)CC2)c1 (centres undefined)
    . | -0.75
> CCCOc1ccc2oc(=O)c3c(c2c1)CCCN3C(=O)CN(C)c1ccccc1
    0.14 | 0.15
> NCC(c1ccccc1)N1CCOCC1 (centres undefined)
    -0.57 | 1.1
> CC(C)(C)C(CO)N=Cc1cccc(C=NC(CO)C(C)(C)C)n1 (centres undefined)
    0.08 | 0.45
> COc1ccc(/C=C2\C=C(c3ccccc3)N(c3cccc(Br)c3)C2=O)cc1Br
    0.17 | .
> CC(C)n1c(NC(=O)Nc2ccccc2)c2ccccc2nc1=O
    . | -0.65
> Cc1ccccc1NC(=S)NCc1cccn1C
    -0.47 | -0.25

(listing goes on)
Each structure is followed by: CapD inh | AID504770
> NC(=O)/C(=C/c1ccc2c(c1)OCO2)NC(=O)c1ccc(Br)cc1
    -0.075 | 0.55
> O=C(NC1CCCCC1)Oc1ccc(-c2nccc(-c3cccs3)n2)cc1
    0.57 | .
> CCN1C(=O)c2cccc3c(S(=O)(=O)N4CCN(C)CC4)ccc1c23
    i | 0.1
> NC(=O)c1c(C(F)(F)F)cc(-c2ccccc2)nc1NCCO
    37 | -0.25
> CC(=O)N1c2ccccc2-c2c(ssc2=S)C1(C)C
    -0.34 | .
> O=C(O)c1ccc(N2C(=O)C3C4c5ccccc5C(CO)(c5ccccc54)C3C2=O)cc1 (centres undefined)
    0.33 | -0.25
> CC(C)N(CC(N)=O)Cc1ccc(-c2ccccc2)cc1
    . | -0.85
> COCCN1Cc2cccc(C(=O)NCc3cccnc3)c2C1=O
    -0.19 | -0.3
> O=C(c1cc(C(F)(F)F)cc(C(F)(F)F)c1)N1CCN(Cc2ccc3c(c2)OCO3)CC1
    -0.24 | 0.6
> CC(C)(C)c1csc(NC(=O)c2ccc(S(=O)(=O)N3CCOCC3)cc2)n1
    -0.74 | .
> Cc1ccc(N2C(=O)C3C4c5ccccc5C(CO)(c5ccccc54)C3C2=O)cc1 (centres undefined)
    0.58 | .
> COc1cc(Cl)c(C)cc1NC(=O)COC(=O)c1n[nH]c2ccccc12
    . | -0.2
